VACV mCherry inh = vaccinia inhibition (mCherry reporter). Potency, µM (doses to about 36.5 µM), for inactives: at the highest dose activity change, negative = inhibition, actives largely listed as inhibitors. 310,000 tested, 0.63% active. Vaccinia virus mCherry reporter infection, fluorescence; about a quarter of the inactives have no number; active = well fitted inhibition curve with a large enough effect; inconclusive = small, poorly fitted or top-dose-only effect; inactive = no such curve, though single readings can be large or run the other way; tested in A549 cells; note: nearly all actives have a fitted effect of over 35% in size; inactives centre near -10
Vaccinia Venus = inhibitors of vaccinia virus (Venus reporter) | Vaccinia virus Venus reporter expression, fluorescence | Potency, µM (top dose mostly 36.5 µM), for the others: at the highest dose activity change, negative = inhibition, usual class: inhibitors | 330,000 tested, 0.46% active | AID 720580; active means well fitted inhibition curve with a large enough effect; inconclusive means small, poorly fitted or top-dose-only effect; inactive means no such curve, though single readings can be large or run the other way; tested in A549 cells; note: nearly all actives have a fitted effect of over 30% in size; inactives centre near -10
* = called active by the depositor; i = inactive; ? = inconclusive; · = no result given; & = joins results of further samples; [ ] = another dose, or the depositor's remark. % is set by controls: 0 for no effect and ±100 for the full control effect; potency is the fitted concentration of half-maximal effect.

SMILES | VACV mCherry inh | Vaccinia Venus
CCC(=O)N1c2ccccc2CC1C(=O)NCc1cccc(C)c1 (configuration not stated) | -2% | 6%
CCOc1ccc(-c2noc(CCCC(=O)NCC3CCCO3)n2)cc1OC (configuration not stated) | i | -8%
Cc1cccn2c(=O)c3cc(C(=O)NC4CCS(=O)(=O)C4)sc3nc12 (configuration not stated) | i | -12%
COc1cccc(NC(=O)C2CCCN(S(=O)(=O)c3cn(C(C)C)cn3)C2)c1 (configuration not stated) | i | -10%
CCn1cc(C(=O)NCc2ccc(C)cc2)c(=O)c2cc(S(=O)(=O)N3CCc4ccccc4C3)ccc21 | -27% | -15%
Cc1cc(C(=O)OCC(=O)Nc2cc(C(F)(F)F)ccc2N2CCOCC2)c(C)o1 | -24% | -16%
Cc1ccc(C(=O)N/C(=C\c2ccc(-c3cccc([N+](=O)[O-])c3)o2)C(=O)NCCCN(C)C)cc1 | ? | ?
CC(Oc1ccc(Cl)cc1)C(=O)Nc1cccc(S(=O)(=O)N2CCCC2)c1 (configuration not stated) | -20% | -11%
Cc1cc(C)c(S(=O)(=O)N(C)CC(=O)N2CCCCC2)c(C)c1 | · | -15%
CC(=O)c1ccc(NC(=O)CSc2nnc(NC(=O)C3CC3)s2)cc1 | 0% | -13%
CN(C)S(=O)(=O)c1ccc(Cl)c(NC(=O)CN2CCc3ccccc3C2)c1 | -13% | -1%
S=c1[nH]nc(C2CCCCC2)n1/N=C/c1cccc(Cl)c1Cl | i | -2%
Cc1ccc(S(=O)(=O)N2CCCC(C(=O)NCC(C)C)C2)cc1 (configuration not stated) | -1% | -6%
CNCCCOc1ccc2c(c1)CCC2 | -15% | -11%
Cc1ccccc1-c1cnc(C(O)c2ccc(Cl)cc2C)[nH]1 (configuration not stated) | -27% | -19%
COC(=O)c1ccc(N=NNc2ccc(C(=O)OC)cc2)cc1 | -7% | 1%
CCc1ccc(NC(=O)N2CCOc3ccc(Cl)cc32)cc1 | -10% | -10%
Cc1cc(NC(=O)COc2c(C)cccc2C)no1 | -14% | -7%
COc1cc(/C=C2/SC(N)=NC2=O)ccc1Oc1ccc([N+](=O)[O-])cc1[N+](=O)[O-] | -15% | -1%
Nc1cccnc1Oc1ccc(F)cc1 | i | 0%
O=c1c2ccccc2ncn1-c1ccc([N+](=O)[O-])cc1[N+](=O)[O-] | -25% | -29%
C=CCn1c(CCc2cc(C(C)(C)C)c(O)c(C(C)(C)C)c2)n[nH]c1=S | -28% | -7%
COc1ccccc1-c1oc2ccccc2c1-c1ccccc1OC | i | 2%
CCOC(=O)c1cc(-c2ccccc2)n(CCCC(=O)Nc2cccc(C)c2C)c1C | -7% | -11%
Cc1cc(NC(=O)c2cncc(Br)c2)n(-c2ccccn2)n1 | 8% | -1%
CN(C)c1ccc(/C=C/c2nc3ccccc3s2)c(Cl)c1 | -15% | -5%
O=C(NN=Cc1ccccc1)C(Oc1ccccc1)c1ccccc1 (configuration not stated) | -26% | -30%
CC1CCN(S(=O)(=O)c2ccc(C(=O)Nc3nnc(-c4ccco4)o3)cc2)CC1 | ? | ?
CCOC(=O)Cc1csc(NC(=O)CSc2nnc(-c3cccnc3)n2Cc2ccco2)n1 | -5% | -10%
Cc1[nH]n(-c2c(Cl)cc(Cl)cc2Cl)c(=O)c1C=Nc1ccc(S(=O)(=O)N2CCOCC2)cc1 | -14% | 0%
CCc1cccc(C)c1Nc1c(-c2ccc(N(C)C)cc2)nc2cnccn12 | -23% | -10%
O=C(c1cc(-c2ccco2)nc2ccccc12)N1CCN(c2ccc(F)cc2)CC1 | -17% | -3%
CCc1c(C)c2c(C)nn(-c3ccccc3)c2oc1=O | -20% | -6%
CCCOc1ccc(C(=O)CCC(=O)NNC(=O)c2ccncc2)cc1 | -15% | -9%
CCCc1cnc2c(c1SCC(=O)Nc1ccccc1F)c(=O)n(C)c(=O)n2C | -13% | -4%
COc1ccc(CCN=C(N)NS(=O)(=O)c2ccccc2)cc1OC | -7% | 5%
N=c1c(S(=O)(=O)c2ccc(Cl)cc2)cc2c(=O)n3ccccc3nc2n1C1CCCCC1 | i | -8%
CCC(C)C(NC(=O)C1CCC(C)CC1)C(=O)NC(C(=O)OC)C(C)C (configuration not stated) | · | -10%
C[n+]1cccc(NC(=O)c2ccccc2)c1 | 43%[activator] | 21%
CC1Cc2nc(SCC(=O)N3CCc4ccccc43)n(C)c(=O)c2S1 (configuration not stated) | -1% | -4%
COc1ccc(NC(=O)c2c(C(F)(F)F)nn(C)c2Cl)cc1 | -3% | 6%
CC(C)CN1CCN(Cc2cccc3cccnc23)CC1CCO (configuration not stated) | -11% | -2%
Nc1nc2c(s1)COc1ccccc1-2 | ? | -29%
O=C(N/C(=C/c1cccc([N+](=O)[O-])c1)C(=O)N1CCCCC1)c1cccs1 | -9% | 0%
COCCn1c(N)c(N(Cc2ccccc2)C(=O)C2=COCCO2)c(=O)[nH]c1=O | 0% | 9%
COc1ccccc1N(C)C(=O)c1cc(S(=O)(=O)N2CCc3ccccc32)cn1C | -25% | 1%
COC(=O)C12CCc3c(ccc4cc(OC)ccc34)C1=CC(=O)C2 (configuration not stated) | -9% | -12%
FC(F)(F)c1ccc(-n2ccnc2)nc1 | -17% | -9%

Reprinted from above, 4 compounds:
SMILES | VACV mCherry inh | Vaccinia Venus
COCCn1c(N)c(N(Cc2ccccc2)C(=O)C2=COCCO2)c(=O)[nH]c1=O | 0% | 9%
COc1ccccc1N(C)C(=O)c1cc(S(=O)(=O)N2CCc3ccccc32)cn1C | -25% | 1%
COC(=O)C12CCc3c(ccc4cc(OC)ccc34)C1=CC(=O)C2 (configuration not stated) | -9% | -12%
FC(F)(F)c1ccc(-n2ccnc2)nc1 | -17% | -9%

Single records (already shown):
`COCCn1c(N)c(N(Cc2ccccc2)C(=O)C2=COCCO2)c(=O)[nH]c1=O` across the screens: VACV mCherry inh = 0%; Vaccinia Venus = 9%
`COc1ccc(NC(=O)c2c(C(F)(F)F)nn(C)c2Cl)cc1` across the screens: VACV mCherry inh = -3%; Vaccinia Venus = 6%
`CC1Cc2nc(SCC(=O)N3CCc4ccccc43)n(C)c(=O)c2S1` (configuration not stated) across the screens: VACV mCherry inh = -1%; Vaccinia Venus = -4%

Next structures follow.
SMILES | VACV mCherry inh | Vaccinia Venus
COc1ccccc1C(=O)NC(=O)COC(=O)CCNS(=O)(=O)c1ccccc1 | -12% | -6%
Cc1cc(C)cc(NC(=O)CSc2nc(=O)n(CCN3CCOCC3)c3c2CCCC3)c1 | ? | -1%
COc1ccc(/C=C/C(=O)Nc2nc(C)c(C(=O)N(C)C)s2)cc1OC | i | -6%
Cc1ccc(C(=O)c2cc3ccccc3o2)cc1C | · | -29%
COc1ccc(NC(=O)c2cc(-c3ccc(OC)c(OC)c3)nc3ccccc23)c(OC)c1 | 3% | 9%
O=C1Nc2ccc(Cl)cc2C(C#CC2CC2)(C(F)(F)F)O1 (configuration not stated) | i | -13%
Cc1nnc(-c2cccc(Br)c2)c2cn(-c3ccc(Br)cc3)nc12 | -7% | ?
N#Cc1c(N)nc2c(c1N)CC(=O)N2c1ccccc1-c1ccccc1 | · | 6%
COc1ccc(CCNC(=O)c2cc3cc(F)ccc3nc2C)cc1OC | -2% | 4%
O=C(CN1CCN(S(=O)(=O)c2ccccc2)CC1)Nc1ccc([N+](=O)[O-])cc1 | -2% | 3%
CNC(C(=O)c1ccccc1)C(OC)c1ccccc1 (configuration not stated) | -12% | -14%
CN(Cc1ccccc1)Cc1nc2c([nH]1)c(=O)n(C)c(=O)n2C | i | -16%

Among those listed so far, these have a thiophene ring, fused or not:
SMILES | VACV mCherry inh | Vaccinia Venus
Cc1cccn2c(=O)c3cc(C(=O)NC4CCS(=O)(=O)C4)sc3nc12 (configuration not stated) | i | -12%
O=C(N/C(=C/c1cccc([N+](=O)[O-])c1)C(=O)N1CCCCC1)c1cccs1 | -9% | 0%

Other entries.
SMILES | VACV mCherry inh | Vaccinia Venus
COc1ccc(CSc2nc3ccccc3[nH]2)cc1 | -28% | -24%
COc1cc(OC)c(OC)cc1C=Cc1ccc2ccccc2n1 | ? | ?
Cc1cc2cc(CN(CC3CCCO3)C(=S)Nc3ccccc3)c(=O)[nH]c2cc1C (configuration not stated) | -22% | ?
Cc1cccc(N(Cc2ccc(Cl)cc2)S(C)(=O)=O)c1 | -3% | -9%
O=C(c1cc(S(=O)(=O)N2CCCCC2)ccc1F)N1CCC2(CC1)OCCO2 | -14% | -6%
O=C(CCS(=O)(=O)Cc1ccccc1F)NCc1ccccc1Cl | i | -8%
COC(=O)[C@]12CCCCC=C1N(CCc1ccc(OC)c(OC)c1)C(=O)[C@H](CC(=O)NCc1cccc3ccccc13)C2 | ? | -25%
O=C(O)CCCNC(=O)/C(=C\C=C\c1ccccc1)NC(=O)c1ccccc1Cl | i | -5%
CN(C)CCCN(C(=O)c1ccc(S(=O)(=O)N2CCCCCC2)cc1)c1nc2ccc(Br)cc2s1 | -11% | ?
CCCCCC(=O)N1CCN(CCN=CC2=C(O)CC(c3ccc(OC)cc3)CC2=O)CC1 (configuration not stated) | -5% | -5%&-9%
C#CCOc1ccc(/C=C2/C(=O)ON=C2C)cc1OCC | i | -3%
COc1ccccc1N1N=C(C(=O)c2ccccc2)C2C(=O)N(c3ccc(Br)cc3)C(=O)C21 (configuration not stated) | i | -14%
O=C(c1cccc(NC2=NC3CS(=O)(=O)CC3S2)c1)N1CCN(c2cccc(Cl)c2)CC1 (configuration not stated) | 2% | -4%
CCn1c(SCc2ccc(F)cc2)nnc1-c1nn(-c2ccccc2)ccc1=O | · | -10%
Cc1ccc(-c2nc(C)c(CCNC(=O)c3ccccc3Br)s2)cc1 | -22% | -21%
COc1ccc(-c2cc(C(C)=O)c(C)n2CCC(=O)NCc2ccccc2OC)cc1 | -8% | -7%
CCn1cc(C(=O)NCc2ccccc2F)c(=O)c2ccc(C)nc21 | -10% | -4%
COc1cc(/C=N/Nc2ccc(Cl)c(C(=O)O)c2)ccc1OCC(=O)N1C(C)CCCC1C (configuration not stated) | -21% | -11%
COc1ccccc1N1CCN(c2cc(C)nc3c(-c4ccc(Cl)cc4)c(C)nn23)CC1 | -7% | -11%
Cc1c(CC(=O)NCC(C)C)c(=O)oc2cc3c(cc12)CCC(C)(C)O3 | -24% | -18%
Cc1ccc(C2CC(c3cccc(Br)c3)n3nc(N)nc3N2)cc1 (configuration not stated) | -8% | -7%
O=C(CN1CCC(O)(c2ccc3c(c2)OCO3)CC1)N1CCOCC1 | -11% | -8%
COc1ccc(NC(=S)NC(NC(=O)/C=C/c2ccccc2)C(Cl)(Cl)Cl)cc1 (configuration not stated) | ? | ?
Cc1cc(C)nc(CCNC(=O)c2cc(COc3c(F)cccc3F)on2)n1 | i | 9%
Cc1ccc(CSCCNC(=O)/C=C/c2ccccc2Cl)cc1 | -11% | -6%
CCOC(=O)C1=C(C)NC(=O)CC1c1ccccc1OC (configuration not stated) | -4% | -9%
CCc1ccc(C(=O)COC(=O)C(NC(=O)C2CCC(C)CC2)C(C)C)cc1 (configuration not stated) | -6% | -11%
CC1COC(Cn2c3ccccc3c3ccccc32)O1 (configuration not stated) | -12%[7.34 µM] | -12%[7.34 µM]
C/C(=N\NC(=O)COc1ccc(C)cc1Br)c1cc([N+](=O)[O-])cs1 | ? | ?
COc1ccccc1CNC(=O)c1ccc2c(c1)CCN2S(=O)(=O)c1ccccc1 | -28% | -18%
O=C(CCS(=O)(=O)c1ccc(Cl)cc1)Nc1nc(-c2cccnc2)cs1 | -22%[7.34 µM] | -5%[7.34 µM]
COC(=O)[C@@H](NC(=O)c1ccccc1OC1CCN(S(C)(=O)=O)CC1)C(C)C | -8% | -11%
CCc1cc2c(SCC(=O)N3CCN(C(=O)c4cccs4)CC3)ncnc2s1 | -10% | -21%
CC1(C)Cc2c(sc(NC(=O)C(C)(C)C)c2C#N)C(C)(C)N1 | · | -14%
Cn1c2ccccc2c2cc([N+](=O)[O-])ccc21 | -5% | 5%
Cc1cc(C)cc(N(C(=O)c2nsc(Cl)c2Cl)C(C(=O)NC2CCCC2)c2ccc(O)cc2)c1 (configuration not stated) | ? | ?
N#C/C(=C/c1ccc(Cl)cc1Cl)c1nc2ccccc2c(=O)[nH]1 | -4% | -2%
O=C(NCc1ccc(Cl)c(Cl)c1)c1cc(C2CCCCN2C(=O)c2ccccn2)on1 (configuration not stated) | 18% | -7%
CCOc1ccc(OCC)c(NC(=O)c2nnn(CC(=O)Nc3ccc(C)cc3C)c2N)c1 | -8% | -7%
CCCCNC(=O)c1[nH]c(=O)cnc1-c1ccccc1 | 26% | 4%
CC(C)NC(=O)N1CCC(n2nccc2NC(=O)CCOc2ccccc2)CC1 | i | -12%
Cc1ccc(-c2csc(NCCc3nc4cc(Cl)c(Cl)cc4n3CCOCCO)n2)cc1 | ? | -29%
CN(C(=O)c1ccc(NC(=O)Cc2cccc(NC(=O)C3CCN(C(=O)c4ccccc4)CC3)c2)cc1)C1CC1 | -6% | -5%
CC(C)CCOc1ccc(CC(=O)NO)cc1 | 4% | -16%
O=C(c1ccc([N+](=O)[O-])o1)N1CCN(c2nc3c(Cl)cccc3s2)CC1 | -28% | -15%
CS(=O)(=O)N1CCC(C(=O)Nc2ccc3c(c2)OCCO3)CC1 | -9% | -3%
Cc1ccc(NC(=O)C(=O)NCCOc2ccccc2Cl)cc1 | -9% | -9%
Cc1ccc(OCCOCCOc2ccc(Br)cc2/C=N\NC(=O)c2ccncc2)cc1 | -15% | -20%
CC(NC(=O)c1cc(F)ccc1F)c1nnc2n1CCN(Cc1ccc(-c3ccccc3)cc1)CC2 (configuration not stated) | ? | ?

Screening data: PubChem BioAssay, National Center for Advancing Translational Sciences (NCATS)
